# Beta cell apopt = inhibitors of cytokine-induced beta cell apoptosis, primary screen, luminescence; INS-1E cytokine-induced death, ATP luminescence, 48 h; percent of positive-control rescue, neutral wells zero; protection from apoptosis, % (test concentration not listed); 0.8% of 300,000 active;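 active = all replicates at 75% or more, or half of them and the mean; inconclusive = half reach 75% but not the mean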;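 also: 0% = cytokine-treated negative control wells and 100% = positive control rescue; higher means more ATP so stronger rescue from cytokine killing; wells of about 40 µL received 100 nL stock; the first replicate is given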
# MLL AF4-AF9 inh = inhibitors of AF4 peptide binding to AF9, primary screen, biochemical, AlphaScreen, biotin-AF4 peptide, FLAG-AF9, single point; inhibition, % at 10 µM; 0.47% of 350,000 active;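 active = every replicate reaching a set inhibition limit, whatever the replicate mean, cut at about 25% in these data; inconclusive = mean inhibition reaches that limit but some replicates miss it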;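 also: 0% = plate neutral control median and 100% = total signal loss; the record names both 10 and 1 µM as test concentration; the first replicate is given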
# Target sequence (P42568 whole entry, looked up): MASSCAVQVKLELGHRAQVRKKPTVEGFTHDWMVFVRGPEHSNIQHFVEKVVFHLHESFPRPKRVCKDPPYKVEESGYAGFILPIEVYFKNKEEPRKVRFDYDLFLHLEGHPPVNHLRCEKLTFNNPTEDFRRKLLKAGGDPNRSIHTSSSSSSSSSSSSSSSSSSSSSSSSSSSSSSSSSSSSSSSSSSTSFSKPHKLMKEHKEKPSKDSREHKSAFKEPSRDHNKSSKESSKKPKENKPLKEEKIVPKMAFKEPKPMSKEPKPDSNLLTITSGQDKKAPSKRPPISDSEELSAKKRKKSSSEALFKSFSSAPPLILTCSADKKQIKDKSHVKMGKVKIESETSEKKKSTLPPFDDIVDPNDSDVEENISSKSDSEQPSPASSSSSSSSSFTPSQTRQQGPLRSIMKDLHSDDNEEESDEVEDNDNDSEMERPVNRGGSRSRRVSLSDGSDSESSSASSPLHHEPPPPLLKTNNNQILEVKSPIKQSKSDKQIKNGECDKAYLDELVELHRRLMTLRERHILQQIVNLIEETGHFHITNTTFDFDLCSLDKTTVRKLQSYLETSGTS
# T cruzi inh = inhibitors of intracellular T. cruzi growth, primary screen, luminescence, NIH3T3 host cells. T. cruzi beta-gal in NIH3T3, 90 h. inhibition, % (test concentration not listed). 1.4% of 300,000 active;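 active = mean inhibition across valid replicates above about 55%, limit read from the data; inconclusive = mean below that limit but half or more replicates reach it; inactive = mean below it, under half of replicates reach it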;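 also: signal also drops with host cell toxicity which is not excluded here; 0% = plate median of DMSO wells and 100% = zero luminescence signal; higher percent means less beta-gal luminescence so fewer parasites; stock transfer was 50 nL into about 50 µL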
# RanGTP-Imp inh = inhibitors of RanGTP-importin-beta interaction, primary screen, biochemical, FRET, CFP-Ran, YFP-importin-beta, homogeneous | cell-free CFP-Ran/YFP-importin-beta FRET ratio | Ran GTPase (GTP-bound) - importin-beta complex | AID 2216, 2009 | 1.1% of 300,000 active | inhibition, % (test concentration not listed);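 active = most replicates above 15%; inconclusive = exactly half above 15%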;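 also: 0% = DMSO wells and 100% = Ran loaded with GDP instead of GTP; wells of about 40 µL received 100 nL stock; the first replicate is given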
# Bfl-1 A1 inh = caspase 3/7 activation in MEF A1-2A-BIM cells, primary screen, A1 inhibitor project, cell-based, luminescence, HTS; Caspase-Glo 3/7 luminescence, 3 h; percent of clofoctol response, vehicle zero; caspase activation, % (concentration not given with the values); 0.066% of 330,000 active;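 active = over half of replicate activation scores above 10%, or exactly half above 10 with the replicate mean above 10; inconclusive = replicate mean below 10 yet half the replicates above 10; inactive = over half of replicates below 10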;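 also: wells of about 30 µL received 50 nL stock; many hits fall short of the cut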
# Vif A3G = inhibitors of Vif binding to APOBEC3G peptide, primary screen, biochemical, TR-FRET, GST-Vif 1-94, biotin-A3G peptide, dose response retest (AID 1117319); Virion infectivity factor (Human immunodeficiency virus type 1 group M subtype B (isolate …; TR-FRET GST-Vif / biotin-A3G peptide binding; higher % means a stronger effect; test concentration not given here; strong numbers were not always called active; one-dose inhibition, %; IC50 in µM for titrated hits; 0.57% of 260,000 active;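 active = above the screen mean plus three standard deviations and confirmed in dose response; inconclusive = results disagree or hit not tested in dose response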;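 also: Vif residues 1-94 fused to GST binding biotinylated APOBEC3G peptide 110-148; 0% = full assay without inhibitor and 100% = GST in place of GST-Vif; retest series ran down from 100 µM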
# Calb FLC = C. albicans growth inhibition with fluconazole, primary screen, CaCi-2 strain, Alamar Blue fluorescence | AID 1979, 2009 | growth inhibition, % (concentration not given with the values) | 0.57% of 300,000 active | C. albicans CaCi-2 (fluconazole-resistant clinical isolate) + fluconazole, 48 h;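 active = most replicates above 75%; inconclusive = exactly half above 75%; inactive = most below 75%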;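 also: all wells also contain fluconazole at 8 µg/ml as a sub-toxic cotreatment; 0% = median of DMSO wells and 100% = median of geldanamycin control wells; wells of about 8 µL received 7.5 nL stock; the first replicate is given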
# LANA-H2B inh = blockers of LANA interaction with H2A/H2B – biochemical, FP readout, HTS, primary screen; Protein LANA1 (Human herpesvirus 8 type P (isolate GK18)), Q9QR71; cell-free LANA-H2A/H2B peptide, fluorescence polarization; inhibition, % (no concentration beside the values); 0.6% of 320,000 active; in the data active = inhibition mostly above about 10%, no sharp cut-off; inactive = mostly below about 6.7%;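 also: stock transfer was 7.5 nL into about 10 µL; 0% = median of vehicle wells and 100% = median of positive control wells; one replicate is shown; the record names a cut of 25% in any replicate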
# Active calls of the source: *; ? = inconclusive; . = no result given; & = joins results of further samples.
# Start of the data: the first four entries as a preview:
SMILES,Beta cell apopt,MLL AF4-AF9 inh,T cruzi inh,RanGTP-Imp inh,Bfl-1 A1 inh,Vif A3G,Calb FLC,LANA-H2B inh
Cc1cccc(NC(=O)CC2c3ccccc3Oc3ccccc32)c1,4,-0.6,23,-3.0,0.5,.,-10,0.9
Cc1c(/C=N/O)sc2ccccc12,-2,0.8,-5,0.4,0.0,-4%,-1,2.7
C=CCc1cccc2cc(C(=O)O)c(=O)oc12,1,.,-14,-3.5,0.1,?,35,-0.9
Cc1ccc(NC(=O)COC(=O)Cn2c(C)csc2=O)c([N+](=O)[O-])c1,-1,2.1,-3,-0.1,0.4,3%,-3,2.5

# Main list (from the top)
SMILES,Beta cell apopt,MLL AF4-AF9 inh,T cruzi inh,RanGTP-Imp inh,Bfl-1 A1 inh,Vif A3G,Calb FLC,LANA-H2B inh
Cc1cccc(NC(=O)CC2c3ccccc3Oc3ccccc32)c1,4,-0.6,23,-3.0,0.5,.,-10,0.9
Cc1c(/C=N/O)sc2ccccc12,-2,0.8,-5,0.4,0.0,-4%,-1,2.7
C=CCc1cccc2cc(C(=O)O)c(=O)oc12,1,.,-14,-3.5,0.1,?,35,-0.9
Cc1ccc(NC(=O)COC(=O)Cn2c(C)csc2=O)c([N+](=O)[O-])c1,-1,2.1,-3,-0.1,0.4,3%,-3,2.5
CC1CCN(S(=O)(=O)c2cccc(C(=O)Oc3ccc([N+](=O)[O-])cc3)c2)CC1,-4,.,-7,-1.9,-0.2,.,-10,2.4
CCCCN1C(=O)NC(NS(=O)(=O)c2ccc(N)cc2)(C(F)(F)F)C1=O (stereo not drawn),-4,.,-3,-5.0,-0.6,12%,7,-1.3
O=C(Nc1ccccc1F)c1ccc(Br)o1,0,-1.2,8,-0.6,-5.2,14%,-7,0.2
Cc1cc(N/N=C/c2ccc(O)cc2O)c2ccccc2n1,-3,-2.0,10,1.9,-0.1,.,12,-1.6
CC(=O)N1CCN(C(=O)c2ccc(Oc3ccccc3)cc2)CC1,1,-1.3,-19,-3.3,-0.2,-10%,15,-0.1
Cc1cc(Cl)ccc1OCC(=O)NCCCN1CCOCC1,-9,.,-1,0.3,-1.0,3%,1,-3.7
Cc1cc2ccccc2n1CCNC(=O)c1cccs1,6,1.7,31,4.4,0.9,12%,-3,0.9
CC1CCC2(CC1)NC(=O)N(Cc1cccc(C(F)(F)F)c1)C2=O (stereo not drawn),-9,-0.5,7,-5.1,1.3,4%,-11,2.3
O=C(N/N=C/c1ccccn1)C12CC3CC(CC(C3)C1)C2,-8,.,-6,-1.0,1.5,-7%,-8,1.2
CN1C2CC(OC(=O)C(CO)c3ccccc3)CC1C1OC12 (stereo not drawn),-5&-8,3.8&-1.3&-1.9,-5&-20,-6.1&10,0.0&0.1,0%,0,2.7&1.9
CCOC(=O)C1=C(CN2CCSCC2)NC(=O)NC1c1cccc([N+](=O)[O-])c1 (stereo not drawn),-1,-5.8,18,-1.4,0.1,-7%,2,4.5
COc1ccc(CCNC(=O)CSc2nc3[nH]ncc3c(=O)[nH]2)cc1OC,0,-5.2,3,3.6,-0.1,2%,12,4.6
CCc1ccccc1NC(=O)CN1CCC(NC(=O)COC)CC1,4,.,-4,-2.8,0.3,0%,8,0.3
CCC(C)NS(=O)(=O)c1ccc(S(=O)(=O)N2CCCC3(CCCCC3)C2)cc1 (stereo not drawn),43,.,50,-1.9,-0.3,-8%,-8,-0.4
CC(NC(=O)c1ccc(F)cc1)c1ccc(F)cc1 (stereo not drawn),-7,-31,-13,-5.9,-1.0,-8%,2,-3.3
O=C(NCCC1CCCCN1S(=O)(=O)c1ccccc1)C(=O)Nc1ccccc1F (stereo not drawn),-2,-0.2,12,1.4,-0.3,-2%,3,.
CCCN(Cc1ccc(N(CC)CC)cc1)CC1CC1,.,.,44,-0.3,1.4,0%,-2,2.1
COc1ccc(CCNC(=O)CSc2nc3ccccc3o2)cc1OC,5,.,-8,-0.2,1.2,1%,14,2.3
CC(C)Cc1nc(C(N)=O)c2[nH]c(=O)n(-c3ccc(F)cc3)c2n1,-1,-2.4,9,-1.4,0.5,-3%,-1,0.1
COCCn1c(SC(C)C(=O)Nc2ccc(Cl)cn2)nnc1-c1ccncc1 (stereo not drawn),-3,3.1,-1,2.3,0.5,8%,9,-1.9
CCc1ccc(Nc2nnc(SCC(=O)N(C)C3CCS(=O)(=O)C3)s2)cc1 (stereo not drawn),1,-12,-13,3.3,-1.5,1%,15,1.8
CCOC(=O)Cc1csc(NC(=O)C(C)c2ccc([N+](=O)[O-])cc2)n1 (stereo not drawn),-5,2.9,-2,1.6,0.0,.,-26,-0.3
O=C(Nc1nccs1)c1ccc(Cl)s1,-5,-2.1,-13,-0.2,-2.7,-6%,-6,-1.4
COc1cccc(NCc2cc3c(C(C)(C)C)nn(-c4ccccc4)c3[nH]c2=O)c1,-3,.,13,?,-0.3,?,?,-4.3
O=c1c(F)cn(C2CCCO2)c(=O)n1Cc1c(Cl)cccc1Cl (stereo not drawn),.,.,-19,0.7,.,-2%,-48,.
Cc1cnc(C(=O)OCC(=O)NC2CCCCCCC2)cn1,-4,-2.5,-24,3.2,-0.6,.,14,-3.9
COc1ccc(NC(=O)c2ccc(N(C)S(C)(=O)=O)cc2)cc1OC,4,.,9,-2.0,-3.8,-1%,?,1.5
S=C(NCc1ccccc1)NC1CCSc2ccccc21 (stereo not drawn),6,1.2,-14,-2.2,0.4,.,14,4.3
Brc1cccc(Nc2nc(-c3cccnc3)cs2)c1,.,-3.1,39,4.6,0.8,0%,8,-0.6
COc1ccc(/C=C/C(=O)NCC(=O)N/N=C/c2cccs2)cc1,0,-0.4,5,-2.2,1.7,.,-16,3.6
CC(=O)Nc1ccccc1OCc1nnc(-c2ccccc2Cl)o1,.,-14,-10,1.7,0.6,.,-5,-7.7
CC(NC(=O)C(=O)NN=C1CCCCCC1)c1ccccc1 (stereo not drawn),2,.,2,-3.7,1.3,-4%,6,-6.5

# 2 entries from above, with each value named.
O=c1c(F)cn(C2CCCO2)c(=O)n1Cc1c(Cl)cccc1Cl (stereo not drawn)
  Beta cell apopt: .
  MLL AF4-AF9 inh: .
  T cruzi inh: -19
  RanGTP-Imp inh: 0.7
  Bfl-1 A1 inh: .
  Vif A3G: -2%
  Calb FLC: -48
  LANA-H2B inh: .
CC(NC(=O)C(=O)NN=C1CCCCCC1)c1ccccc1 (stereo not drawn)
  Beta cell apopt: 2
  MLL AF4-AF9 inh: .
  T cruzi inh: 2
  RanGTP-Imp inh: -3.7
  Bfl-1 A1 inh: 1.3
  Vif A3G: -4%
  Calb FLC: 6
  LANA-H2B inh: -6.5

# Other entries follow:
SMILES,Beta cell apopt,MLL AF4-AF9 inh,T cruzi inh,RanGTP-Imp inh,Bfl-1 A1 inh,Vif A3G,Calb FLC,LANA-H2B inh
CCOC(=O)c1c(NC(=O)CSc2nnnn2C)sc(C)c1-c1ccc(C)cc1,7,.,32,5.6,-0.1,-2%,0,4.0
O=C(CSc1nnc(-c2ccccc2)o1)N1CCc2ccccc2C1,-3,.,-18,-0.4,-2.2,-1%,-5,-0.9
CCC(C)NC(=O)c1cc(S(=O)(=O)N2CCCCC2)c[nH]1 (stereo not drawn),-4,-4.1,-12,1.2,0.7,.,6,4.4
Cc1nccn1CC(=O)N/N=C/c1cc(Br)cs1,-9,.,-7,-2.8,0.3,-1%,-10,0.0
Cn1c(N)c(C(=O)COC(=O)CN2C(=O)c3ccccc3C2=O)c(=O)n(C)c1=O,-4,-1.8,-9,-1.9,1.8,12%,5,-0.9
O=C(/C=C/c1ccco1)Nc1scc(-c2ccccc2)c1C(=O)O,12,-6.5,-7,-2.8,-8.3,11%,-5,-0.1
CCOC(=O)C1=C(O)C(=O)N(Cc2cccnc2)C1c1ccc(OC)cc1 (stereo not drawn),-5,0.2,-2,-0.2,0.4,-12%,3,-2.1
CC(C)CN(C(=O)CN1CCOCC1)c1c(N)n(CC(C)C)c(=O)[nH]c1=O,1,1.6,-2,0.2,-0.9,11%,?,4.9
O=C(NCC(c1cccs1)N1CCOCC1)c1ccc(Cl)cc1 (stereo not drawn),3,-2.4,-15,-3.9,0.5,-8%,-9,-1.1
COc1ccc(N(C(=O)CNC(=O)c2ccco2)C(C(=O)NC2CCCC2)c2ccc(C)o2)cc1 (stereo not drawn),-7,-6.0,-34,2.0,0.3,.,16,2.3
CSc1cccc(NC(=O)C(C)C)c1,-12,-0.9,-5,-3.1,1.4,69%,17,-2.1
Cc1ccc(NC(=O)c2cc(C(C)(C)C)nn2Cc2ccccc2)cc1,.,-15,14,-0.4,1.5,-10%,1,0.3
COc1ccc(/C=C2\SC(=O)N(CC(=O)NCCC(C)C)C2=O)cc1OC,-5,0.9,2,?,0.3,.,-5,2.5
Oc1c(Br)cc(/C=N/n2c(-c3ccccc3)n[nH]c2=S)c(Br)c1O,8,.,-1,-2.6,0.8,.,-4,-0.8
CCOc1ccc(N=C2NC(=O)S/C2=C\c2ccc(N(C)C)cc2)cc1,24,.,5,-33,-0.2,3%,-1,4.5
COCC(=O)N1CCC(Oc2ccc(C(=O)NCc3cc(C)no3)cc2)CC1,-4,-1.5,2,0.8,-0.1,.,7,-0.8
Cc1ccc(C)c(OCC(=O)Nc2cc(C(=O)O)cc(C(=O)O)c2)c1,-1,-1.1,0,-3.9,0.6,.,-11,-4.1
c1ccc(-c2noc(-c3cccc4ccccc34)n2)nc1,4,.,-28,1.0,-1.2,1%,-4,-2.5
COc1ccc(/C(C)=N\NC(=O)C(c2ccncc2)N2CCOCC2)cc1 (stereo not drawn),1,-1.2,8,1.4,-0.2,-2%,17,-5.9
Cc1ccc(NC2CCCN(C(=O)CCN3CCCCO3)C2)cc1C (stereo not drawn),0,-2.4,-7,-4.9,-0.1,.,2,-5.0
O=C(CSc1nnc(-c2cccc(S(=O)(=O)N3CCCCC3)c2)o1)c1ccc[nH]1,2,.,17,6.5,0.9,7%,0,-1.3
C/C(=N/NC(=O)c1ccc(C(C)(C)C)cc1)c1ccccn1,111*,15,40,-0.6,-3.7,.,-7,5.4
CCOc1ccccc1Nc1ncccc1C(=O)N1CCCC1,.,.,-12,-0.2,0.0,-2%,-1,11
Cc1c(NC(=O)C2(c3ccccc3)CCOCC2)c(=O)n(-c2ccccc2)n1C,-2,.,5,3.4,1.5,0%,-1,1.1
CCCC(C)C(=O)Nc1cc(S(=O)(=O)N2CCCCC2)ccc1N1CCOCC1 (stereo not drawn),-1,-6.1,.,.,0.4,1%,.,-1.4
C=CCNCCOc1ccccc1-c1ccccc1,1,.,-9,-4.6,1.4,5%,-3,6.7
O=C(O)CSc1nnc(CNc2cccc(C(F)(F)F)c2)n1Cc1ccco1,-10,.,-11,3.3,0.1,?,-11,-3.8

# High-throughput results: PubChem BioAssay, several laboratories
